VACV mCherry inh – qHTS for Stage-Specific Inhibitors of Vaccinia Orthopoxvirus: mCherry Reporter Primary qHTS. hit rate 0.63% among 310,000. AID 720579, 2013. Potency, µM (highest dose often 36.5 µM), without a hit: top-dose activity change, negative = inhibition, hits mostly inhibitors. Vaccinia virus mCherry reporter infection, fluorescence; about a quarter of the inactives have no number; active = well fitted inhibition curve with a large enough effect; inconclusive = small, poorly fitted or top-dose-only effect; inactive = no such curve, though single readings can be large or run the other way; tested in A549 cells; also: nearly all actives have a fitted effect of over 35% in size; inactives centre near -10
Vaccinia Venus – qHTS for Stage-Specific Inhibitors of Vaccinia Orthopoxvirus: Venus Reporter Primary qHTS; Vaccinia virus Venus reporter expression, fluorescence; Potency, µM (highest dose often 36.5 µM), for inactives: at the highest dose activity change, negative = inhibition, hits mostly inhibitors; AID 720580, 2013; hit rate 0.46% among 330,000; active means well fitted inhibition curve with a large enough effect; inconclusive means small, poorly fitted or top-dose-only effect; inactive means no such curve, though single readings can be large or run the other way; tested in A549 cells; also: nearly all actives have a fitted effect of over 30% in size; inactives centre near -10
* = called active by the depositor; i = inactive; ? = inconclusive; nt = not tested or not shown; & = joins results of further samples; [ ] = dose if it differs, or a comment. % is scaled to controls: 0 for no effect and ±100 for the full control effect; potency is read from the fitted curve at half-maximal effect.

| canonical_smiles | VACV mCherry inh | Vaccinia Venus |
| --- | --- | --- |
| Cc1ccc(/C=C2/NC(=O)N(Cc3ccccc3)C2=O)o1 | -20% | 0% |
| COc1cc(-c2cc3n(C)c(C)c(CCC(=O)NCc4ccccc4)c(=O)n3n2)cc(OC)c1OC | -7% | -3% |
| COc1cccc(OC)c1C(=O)NC(=S)NCc1ccccc1 | -11% | -2% |
| O=C(/C=C/NNC(=O)c1cccc(Br)c1)c1cccc(Br)c1 | i | -13% |
| COc1ccc(NC(=S)N2CCNC(=O)C2CC(=O)Nc2cccc(Cl)c2C)cc1 (stereo not given) | -9% | -20% |
| CC(C)CC1=C/C(=C/c2ccc(-c3ccccc3)o2)C(=O)O1 | -11% | 19% |
| CCN(CC)c1ccc(C(=O)NNC(=O)CN2C(=O)NC3(CCCCC3)C2=O)cc1 | -13% | -15% |
| O=C(CS(=O)(=O)c1ccccc1)N1CCc2ccccc21 | i | 1% |
| NS(=O)(=O)c1ccc(CCNC2CC(=O)N(CCc3ccccc3)C2=O)cc1 (stereo not given) | nt | ? |
| COc1ccc(S(=O)(=O)Cc2ccc(C(=O)N3CCN(c4cc(C)ccc4C)CC3)o2)cc1 | -10% | 1% |
| CCOC(=O)C(C)Sc1ccc2nnc(-c3ccc(F)cc3)n2n1 (stereo not given) | 14% | -12% |
| CCc1nnc(NC(=O)c2ccc(NS(=O)(=O)c3ccccc3)cc2)s1 | -7% | -16% |
| O=[N+]([O-])c1ccc(OS(=O)(=O)Cc2ccccc2)cc1 | i | 1% |
| CC(C)(C)NC(=O)C(c1c[nH]c2ccccc12)N(C(=O)Cn1nnc(-c2ccc(Cl)cc2)n1)c1ccccc1F (stereo not given) | -15% | ? |
| CCC1CCCCN1CCNS(=O)(=O)c1ccc2c(c1)oc(=O)n2C (stereo not given) | i | 0% |
| COc1ccc(NS(=O)(=O)c2cccc(C(=O)OCC(=O)N3CCN(c4ccc(OC)cc4)CC3)c2)cc1 | -7% | -23% |
| Cc1ccccc1CN1CCN(S(=O)(=O)c2cccs2)CC1 | -2% | 3% |
| COc1ccc(NC(=O)Cc2nnc(SCC(=O)Nc3nccs3)n2C)cc1 | -11% | -21% |
| CC1(C)OC(=O)C(=CNCC(O)c2ccccc2)C(=O)O1 (stereo not given) | -9% | -2% |
| CCC(=O)N1CCc2cc(Br)cc(S(=O)(=O)N(C)c3ccc(OC)cc3)c21 | -1% | -19% |
| Cc1cccc(C)c1-c1ccc(CN2C(CC(C)C)C(=O)N(Cc3cn(CCO)nn3)CCS2(=O)=O)cc1 (stereo not given) | -25% | ? |
| CCOc1ccc(NC(=S)Nc2ccc(OC(F)(F)F)cc2)cc1 | -2% | -17% |
| CC(C)C[C@@H]1COc2cc(N3CCN(C)CC3)ccc2S(=O)(=O)N1 | 21% | 7% |
| CCCCn1c(N)c(N(CCOC)C(=O)c2ccc(-c3ccc(Cl)cc3)o2)c(=O)[nH]c1=O | -6% | -20% |
| O=C(CN1CCN(S(=O)(=O)N2CCCCC2)CC1)Nc1ccc(Br)cc1 | -17% | -13% |

A section from the list above, for reference:
| canonical_smiles | VACV mCherry inh | Vaccinia Venus |
| --- | --- | --- |
| Cc1ccc(/C=C2/NC(=O)N(Cc3ccccc3)C2=O)o1 | -20% | 0% |
| COc1cc(-c2cc3n(C)c(C)c(CCC(=O)NCc4ccccc4)c(=O)n3n2)cc(OC)c1OC | -7% | -3% |

The results go on.
| canonical_smiles | VACV mCherry inh | Vaccinia Venus |
| --- | --- | --- |
| CCc1ccc(N(C(=O)c2ccco2)C(C(=O)NC2CCCC2)c2cccnc2)cc1 (stereo not given) | -17% | -11% |
| NC(N)=N/N=C/c1ccc(OCc2ccc(Cl)cc2Cl)cc1 | -6% | -8% |
| O=C(CCc1ccccc1O)NC1CCCc2ccccc21 (stereo not given) | ? | -1% |
| Cc1ccc(NC(=O)C2CC(=O)N(Cc3ccco3)C2)cc1 (stereo not given) | -6% | -20% |
| Cn1c(NC(=O)C[n+]2cc(-c3ccc(Cl)c(Cl)c3)n3c2CCC3)cc(=O)n(C)c1=O | -9% | 0% |
| Cc1ccccc1C(=O)c1cccn1CC(=O)NCCCN1CCc2ccccc2C1 | -17% | -12% |
| COC(=O)c1cc(S(=O)(=O)NCC2CCN(Cc3cccc(F)c3)CC2)cn1C | -13% | 4% |
| CCOC(=O)C(C)Oc1cc(Cl)c(C=O)cc1OC (stereo not given) | i | -2% |
| CCCCS(=O)(=O)NC1=NCN(CC)CN1 | -6% | -8% |
| Cc1ccc(-c2noc(C3CCCN(C(=O)c4cccc([N+](=O)[O-])c4)C3)n2)o1 (stereo not given) | -17% | -10% |
| CC(Sc1nc2c([nH]c3ccccc32)c(=O)n1-c1ccccc1)c1ccccc1 (stereo not given) | -15% | -21% |
| O=S1(=O)CCN2C(=N1)Sc1c2ccc2c1CCCC2 | ? | -27% |
| CSc1nc2ccc(S(=O)(=O)Nc3c(C)n(C)n(-c4ccccc4)c3=O)cc2s1 | i | -8% |
| COc1ccc(-n2c(=O)c3ccc(C(=O)NCc4ccc(C)cc4)cc3n(Cc3cccc(Cl)c3)c2=O)cc1 | -12% | -15% |
| Cc1cc(C)n2c(SCCC(C)C)nnc2n1 | nt | -13% |
| Cc1onc(-c2c(Cl)cccc2Cl)c1C(=O)Nc1nc(C(C)(C)C)cs1 | i[7.34 µM] | -5%[7.34 µM] |
| COc1cc(-c2nnc(SCCOc3ccccc3)o2)cc(OC)c1OC | -12% | 5% |
| Cc1cc(C)c(-c2cc(NC(=O)COC(=O)c3ccc(NC(=O)CC#N)cc3)n(-c3ccccc3)n2)cc1C | -15% | -9% |
| O=C(COc1ccccc1)N=C1SC2CS(=O)(=O)CC2N1c1ccc(F)cc1F (stereo not given) | -14%[7.34 µM] | -6%[7.34 µM] |
| COc1ccc(OC)c(NC(=O)CCNS(=O)(=O)c2ccc3c(c2)oc(=O)n3C)c1 | -4%&-12% | -3%&-13% |
| CCOC(=O)c1c(C)[nH]c(C)c1S(=O)(=O)N1CCN(c2ccccc2OC)CC1 | i | -9% |
| COc1cccc(CN(C)CC(O)COC(c2ccccc2)c2ccccc2C)c1 (stereo not given) | ? | -12% |
| COc1ccc(CNCCCNCc2ccc(OC)c(OC)c2)cc1OC | -2% | -26% |
| CCn1cc(C(=O)NCC2COc3ccccc3O2)c2cc(OC)c(OC)cc2c1=O (stereo not given) | -22% | -9% |
| O=C(NCc1cccnc1)C(=O)Nc1nc2ccccc2s1 | i | -8% |
| COc1ccc(-c2cc(C(F)(F)F)nc(NCc3ccccc3)n2)cc1 | -17% | -11% |
| CC(C)CNS(=O)(=O)c1cc(C(=O)N2CC(C)OC(C)C2)c(Cl)cc1Cl (stereo not given) | ? | -5% |
| O=C(NC(=S)Nn1cnnc1)c1cccc(Br)c1 | -5% | 1% |
| O=C(CN1CCN(C(=O)c2ccccc2)CC1)Nc1ccccc1 | 0% | 0% |
| CC(C)C(=O)Nc1nc(-c2ccc(S(=O)(=O)N3CCOCC3)cc2)cs1 | i | -6% |
| COC(=O)c1ccc(COC(=O)c2ccc(S(=O)(=O)N3CCC(C)CC3)cc2)o1 | nt | -16% |
| CC(C)c1nc(CNC(=O)c2ccc(OC3CCN(Cc4ccccn4)CC3)cc2)cs1 | -14% | -8% |
| CCC1=C(OC(=O)N(CC)CC)N2C(=O)OC(=NCCOC)[C@]2(Cc2ccccc2)[C@H]2C1=CC[C@H]1C(=O)N(CC(=O)OC)C(=O)[C@H]12 | -6% | -22% |
| Cc1nn(C)cc1-c1n[nH]c(=S)n1-c1ccc(F)cc1 | -15% | -3% |
| COC(=O)N/N=C\c1ccc(-c2cc(Cl)c(Cl)cc2Cl)o1 | -19% | -15% |
| Cc1sc2nc(CN3CCOCC3)nc(NS(=O)(=O)c3ccccc3)c2c1C | nt | -5% |
| Cc1ccc(S(=O)(=O)N2C[C@H]3[C@H]4C(=O)N(C5CCCCC5)C(=O)[C@H]4CC(=O)[C@H]3[C@@H]2c2ccccc2Cl)cc1 | -8% | -6% |
| COc1ccc(Cc2nnc(SCc3c(C)noc3C)n2C2CCCCC2)cc1OC | i | -9% |
| C[C@@H]1CCCCO[C@H](CN(C)C(=O)NC2CCCCC2)[C@@H](C)CN([C@H](C)CO)C(=O)c2cc(NC(=O)c3ccccc3)ccc2O1 | -7% | ? |
| Cc1ccc(S(=O)(=O)C2(C(=O)O)CCCC2)cc1C | -4% | -11% |
| CSc1nc2sc3c(c2c(=O)n1C1CCCCC1)CCN(C)C3 | i | -7% |
| Cc1ccc(CCCOC(=O)C[N+]2(C)CCCC2)cc1 | -16% | -2% |
| O=C(CSc1cc(Cl)ccc1Cl)NC1CCCC1 | -11% | 0% |
| COc1cccc(-c2ccc(O)c(CNCc3cccc4ccccc34)c2)n1 | i | -12% |
| CN(C)c1ccc(/C=C/c2ccc3cc(F)ccc3n2)cc1 | -23% | -6% |
| O=c1c2ccccc2c2ccccc2c(=O)n1Cc1ccc2c(c1)OCO2 | ? | ? |
| Cc1oc(C(C)(C)C)cc1C(=O)Nc1ccc2c(c1)OCCO2 | -14% | -19% |
| CCOc1ccc(C(=O)CSc2nnc(N)s2)cc1 | 6% | 3% |
| CCOC(=O)CSc1nc2cc3c(cc2c(=O)n1CCCCCC(=O)NCc1ccc(OC)cc1)OCO3 | -20% | -18% |
| COc1cccc(CN(CC(=O)NCC2CCCO2)C(=O)CCC(=O)Nc2cc(C)on2)c1 (stereo not given) | -6% | -5% |

Record cards (already shown):
O=C(NC(=S)Nn1cnnc1)c1cccc(Br)c1 across the screens: VACV mCherry inh = -5%; Vaccinia Venus = 1%
COC(=O)c1ccc(COC(=O)c2ccc(S(=O)(=O)N3CCC(C)CC3)cc2)o1 across the screens: VACV mCherry inh = nt; Vaccinia Venus = -16%
CN(C)c1ccc(/C=C/c2ccc3cc(F)ccc3n2)cc1 across the screens: VACV mCherry inh = -23%; Vaccinia Venus = -6%

Continuation:
| canonical_smiles | VACV mCherry inh | Vaccinia Venus |
| --- | --- | --- |
| O=C(Nc1ccn(Cc2ccccc2)n1)c1cccc(F)c1 | i | -28% |
| CCCCN1CCC(=O)NC1=O | i | -22% |
| O=C(NCc1nc2ccccc2[nH]1)C1=C[C@@H](c2ccc(Br)cc2)C[C@@H](OCc2ccc(CO)cc2)O1 | -8% | ? |
| O=C1CCC(C(=O)OCC(=O)Nc2ccc(SC(F)F)cc2)=NN1 | -17% | -8% |
| CCN(Cc1ccccc1)Cc1c(O)ccc2c(=O)c(-c3ccc(Cl)cc3)c(C(F)(F)F)oc12 | i | -11% |
| Cc1ccc(C(O)c2ncc(-c3ccccc3Cl)[nH]2)cc1 (stereo not given) | -4% | 5% |
| CC(C)(C)OC(=O)N1CCC(C(=O)Nc2cccc(C(=O)NCc3ccccc3)c2)CC1 | 3% | -25% |
| CCOC(=O)C1=CC[C@@H](c2ccco2)N(S(=O)(=O)c2ccc(C)cc2)[C@H]1C(=O)OCC | i | 0% |
| CCN(Cc1ccccc1)S(=O)(=O)c1csc(C(N)=O)c1 | 22%[7.34 µM] | 0%[7.34 µM] |
| O=C(O)c1cc(-c2cc3ccccc3o2)nn1-c1ccccc1 | -8% | -3% |
| CN1CCCN(C(=O)/C=C/c2ccc(Cl)cc2Cl)CC1 | i | -9% |
| CCOC(=O)c1[nH]c2cc(OC)c(OC)cc2c1NC(=O)c1ccc2c(c1)OCO2 | ? | ? |
| CCOC(=O)c1ccc(-c2c(C(=O)OCC)oc3cc(O)c(CC)cc3c2=O)o1 | -25% | -24% |
| CC(C)OCCCNc1nc2c(cnn2C)c(=O)[nH]1 | i | -24% |
| NC(=O)c1nsc(C(=O)N(Cc2ccccc2F)C(C(=O)NCC2CCCO2)c2ccc(F)cc2)c1N (stereo not given) | i | -12% |
| Nc1ccccc1C#CC(=O)c1ccccc1 | ? | 22µM* |
| CCCC(=O)N1CCN(c2nc3c(OC)ccc(C)c3s2)CC1 | i | -4% |
| Cc1cccc(C(=O)Nc2cc(=O)n(C)c(=O)n2C)c1 | -1% | -12% |
| CCOC(=O)C1CCCN(Cc2cc(=O)oc3cc(C)ccc23)C1 (stereo not given) | -3% | 0% |
| COc1cc(NC(=O)c2ccccc2-c2ccccc2)cc(OC)c1 | -11% | -11% |
| C[C@@H]1NC(=O)/C(=C\c2ccccc2Cl)NC1=O | -12% | -3% |
| O=C(NCCNC(=O)c1ccccc1Br)c1cccnc1 | -9% | -15% |
| O=C(Nc1nnc(-c2ccccc2F)s1)Nc1ccccc1F | -3% | -13% |
| Cc1ccccc1NC(=O)c1ccc(C)c(S(=O)(=O)NCc2cccnc2)c1 | i | -14% |
| CSCCC(c1nnnn1C1CCCC1)N1CCC(n2c(=O)[nH]c3ccccc32)CC1 (stereo not given) | 16% | 4% |
| CCn1cc(C(=O)NCCc2ccc(Cl)cc2)c(=O)c2cc(S(=O)(=O)N3CCOCC3)ccc21 | -1% | -4% |
| CC(=O)NCc1c(I)c(NC(C)=O)c(I)c(C(=O)O)c1I | -2% | -16% |
| Cc1[nH]n(-c2ncc(-c3ccccc3)s2)c(=O)c1C(c1ccc(Br)cc1)C(C#N)C#N (stereo not given) | -12% | -12% |
| COc1ccc2[nH]c3nc(SCC(=O)NC4CC4)nnc3c2c1 | -4% | -12% |

Screens: PubChem BioAssay, National Center for Advancing Translational Sciences (NCATS)
